MT1-MMP act inh: inhibitors of human MT1-MMP activation; HT1080 RFP-PRO-GFP cells, GFP/RFP ratio fluorescence, overnight; percent of plate control window, DMSO zero; hit rate 0.061% among 360,000; P50281; AID 651647; GFP/RFP ratio change, % at 20 µM;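 active means GFP/RFP ratio change of at least 30% with cell ATP level not reduced by more than half and red fluorescence within 50% of control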; further: strong numbers were not always called active
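Assay system – RFP-PRO-GFP reporter HT1080 cells · Compound dosing – single dose of 20 µM compound, 1% DMSO final · Incubation – overnight compound exposure at 37 °C · Measure – GFP/RFP fluorescence ratio · Benchmarks – DMSO wells and RFP-L50D-GFP cells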
Yeast UUG start: yeast start codon fidelity modulation; S. cerevisiae UUG-firefly luciferase reporter, luminescence/redox ratio; activity score, % at 18.7 µM; hit rate 0.13% among 350,000;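 active means replicate mean at a twofold rise or more, about +100% in these data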;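 further: firefly luciferase made from a UUG start codon reports start codon fidelity; reporter light over untreated wells divided by growth signal over untreated wells; some hits fall short of that in this replicate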
eIF4H inh: inhibitors of RNA binding by human eIF4H | hit rate 0.94% among 290,000 | inhibition, % at 35 µM | AID 2012 | eIF4H fluorescence polarization binding assay;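 active means 50% or more with normal probe brightness, or confirmed in later tests; about a fifth of its hits are not listed in these tables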;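 further: calls also rest on retests at 20 µM and on dose response follow-up; 0% = protein and probe with vehicle and 100% = probe without protein; strong numbers were not always called active; many hits fall short of the cut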
CSC inhib: cancer stem cell inhibition; cancer stem cell-like cells viability, luminescence; inhibition, % at 7.5 µM; hit rate 1.1% among 300,000;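 active means mean at 75% or more and at least half the replicates too; tested in HMLE shEcad cells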;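 further: 0% = median of negative and 100% = median of positive control wells; the first replicate is given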
Env fusion inh: inhibitors of HIV Env-mediated cell fusion; HeLa-JRFL Env/CEM21 cell fusion, luciferase; inhibition, % at 12.3 µM; hit rate 1.1% among 360,000; AID 651610;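 active means mean replicate inhibition score of at least 50 and every replicate individually at or above 50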;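 further: 0% = plate neutral controls and 100% = maraviroc near 300 nM; one replicate is shown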
Rce1 inh: inhibitors of yeast Ras-converting enzyme | hit rate 0.27% among 290,000 | calls only | AID 2563 | yeast membranes, quenched prenylated peptide cleavage fluorescence;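 active means fall in fluorescence gain of 50% or more versus controls, with final raw signal at or below 3038400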;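 further: plate controls were neutral control wells for no effect and wells lacking membranes for full effect; tested at 10 µM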
Target sequence (Q03530 whole entry, looked up): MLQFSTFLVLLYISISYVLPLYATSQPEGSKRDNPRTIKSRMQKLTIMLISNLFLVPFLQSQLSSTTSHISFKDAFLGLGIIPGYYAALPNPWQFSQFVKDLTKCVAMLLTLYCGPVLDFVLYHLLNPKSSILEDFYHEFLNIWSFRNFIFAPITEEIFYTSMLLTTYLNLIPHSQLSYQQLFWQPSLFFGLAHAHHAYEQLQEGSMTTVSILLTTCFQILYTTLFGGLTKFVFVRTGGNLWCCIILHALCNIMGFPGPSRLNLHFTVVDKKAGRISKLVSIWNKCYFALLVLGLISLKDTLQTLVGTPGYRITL
PABP polyA inh: blocks human PABP binding to poly(A) RNA; AID 2014; fluorescence polarization; hit rate 1% among 290,000; inhibition, % at 35 µM; P11940;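 active means 50% or more with normal probe brightness, or confirmed in later tests; about a fifth of its hits are not listed in these tables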;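 further: calls also rest on retests at 20 µM and on dose response follow-up; controls were probe without protein and protein plus probe with vehicle; some compounds called inactive have numbers as strong as hits; many hits fall short of the cut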
MT1-MMP act inh RFP: second read-out of MT1-MMP act inh, no call of its own (marks repeat the call); RFP signal change, %; measured here: RFP expression control read;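 0 = vehicle wells; hits needed this value within 50% of zero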
* marks the source's active call; other numbers are inactive results; i = inactive; · = no result given.

SMILES	MT1-MMP act inh	MT1-MMP act inh RFP	Yeast UUG start	eIF4H inh	CSC inhib	Env fusion inh	Rce1 inh	PABP polyA inh
Fc1ccccc1SCc1nnc(-c2ccccc2Br)o1	-1	1	-28	-12	-5	-140	i	-4
O=C(/C=C/c1ccco1)N(Cc1ccccc1F)C1CCS(=O)(=O)C1 (stereo unspecified)	-7	4	-8	28	·	-4	i	2
CC(=O)NC(C)CCc1ccccc1 (stereo unspecified)	0	1	·	-4	-6	-11	i	-6
COc1ccc(CNC(=O)COC(=O)CCOc2ccccc2)cc1	1	5	·	5	-13	7	i	2
CCOc1ccccc1OCC(=O)OCC(=O)c1c(N)n(CC(C)C)c(=O)n(C)c1=O	-1	-12	-2	·	-6	·	·	·
CC(C)NC(=S)N/N=C1\CCCCc2ccccc21	7	-1	·	6	-2	0	i	-7
Cc1noc(-c2ccccc2)c1NC(=O)Nc1ccc2nc([C@H]3C[C@H](O)[C@@H](CO)O3)[nH]c2c1	7	8	-17	·	·	-6	·	·
O=C(CCN=C1NS(=O)(=O)c2ccccc21)OCc1ccccc1	2	2	-11	·	10	·	i	·
Cc1csc2c(=O)[nH]cnc12	-3	2	·	5	-9	-7	i	-11
CCOc1cccc(C(=O)NC(=S)Nc2ccc3c(c2)OCCO3)c1	2	1	-29	-10	-7	-27	i	7
COC(=O)c1cc(COC(=O)c2ccc3ccccc3n2)oc1C	-2	-1	-26	0	-15	19	i	8
COc1cc(/C=N/NC(=S)NCCN2CCOCC2)cc(OC)c1O	2	-2	-22	-5	-20	·	i	1
O=C(CSc1ncn[nH]1)NCc1ccccc1Cl	0	6	-20	-4	-2	2	i	6
COc1ccccc1N1CCN(C(=O)C(C)NC(=O)c2cccc([N+](=O)[O-])c2)CC1 (stereo unspecified)	1	1	5	-5	·	3	i	5
Cc1cc(C)cc(N(CCC(=O)O)S(=O)(=O)c2ccc(Cl)cc2)c1	2	1	·	1	0	7	i	1
Cc1cccc(NC(=O)Cc2ccc(NC3=NC4CS(=O)(=O)CC4S3)cc2)c1 (stereo unspecified)	0	5	-19	-9	·	-10	i	-10
N#CCC(=O)Nc1ccc(C(=O)OCC(=O)Nc2cc(-c3ccccc3)nn2-c2ccccc2)cc1	3	5	-15	·	·	8	·	·
Cc1ccc2[nH]c(=O)c(CN(CCCN(C)C)C(=O)Nc3cccc(Cl)c3)cc2c1	-8	-9	9	-8	-5	·	i	-12
O=C(COC(=O)c1ccc([N+](=O)[O-])o1)NCc1ccc2c(c1)OCO2	-5	-1	5	·	10	0	·	·
O=C(Nc1ccc(F)cc1)N1CCN(c2ccc3nnc(-c4ccc(F)cc4)n3n2)CC1	-3	-3	-14	2	15	7	i	5
O=C(Nc1ccc(S(=O)(=O)N2CCOCC2)cc1)c1ccc(CN2CCc3ccccc3C2)cc1	·	·	·	2	0	·	i	-12
NS(=O)(=O)c1ccc(CCNC(=S)NC2CCCC2)cc1	-1	7	·	6	2	-8	i	-6
C=CCSc1nnc(NC(=O)C2=COCCO2)s1	5	3	·	·	-5	-6	i	·
CCN=C1SC(C(=O)Nc2ccc(OC)cc2)CC(=O)N1CC (stereo unspecified)	-1	1	-12	5	-13	-2	i	-3
CC(C)Sc1nc2c(c(=O)[nH]c(=O)n2C)n1Cc1ccc(Cl)cc1	-5	-10	0	-2	7	·	i	0
Cc1ccc(C2=NN(C(=O)CSc3nccn3C)C(c3ccco3)C2)cc1 (stereo unspecified)	0	-2	-8	-1	-4	8	i	-7
Cc1cc(=O)oc2c(C)c(OC(C)C(=O)NCCCN3CCCC3=O)ccc12 (stereo unspecified)	1	1	-23	-10	5	11	i	6
c1ccc(OCCOCCN2CCc3ccccc3C2)cc1	-1	3	·	-3	8	-8	i	4
COc1ccc(C(=O)CSc2nn3c(=O)c(C(C)(C)C)nnc3s2)cc1	-20	5	·	-8	9	·	i	-2
Cc1c2ccccc2nc2ccccc12	0	-2	·	·	17	-5	i	·
Cc1ccc(OCCCN2C(=O)C(=O)c3cccc(C)c32)cc1	-5	1	-17	-9	-10	·	i	-3
CC(=O)c1ccccc1OCCn1nnc(-c2ccc(C)cc2)n1	6	-5	-8	-7	-7	19	i	4
Cc1ccc2c(=O)[nH]c(Nc3nc(C)cc(-c4ccccc4)n3)nc2c1	3	-1	4	0	8	36	i	-1
Cc1csc2nc(CNS(=O)(=O)c3ccc4c(c3)OCCO4)cn12	1	2	-21	-3	-2	-7	i	4
O=S(=O)(N1CCCCCC1)N1CCN(S(=O)(=O)N2CCOCC2)CC1	-2	0	-19	-23	2	·	i	-11
O=C(CC1CCCCC1)NC1CCCC1	4	4	·	-3	·	-8	i	-2
COC(=O)c1ccc(N2CCN(C)CC2)c(NC(=O)c2cccs2)c1	-3	-2	-4	-5	-2	0	·	-3
O=c1nc2s/c(=C\c3ccco3)c(=O)n2nc1Cc1ccc(F)cc1	0	4	0	84*	·	-22	i	58*
CC1CC(C)CN(CCC(=O)Nc2ccc(Br)cc2)C1 (stereo unspecified)	2	2	-16	1	6	5	i	-1
CC1CCCN(C(=O)CN(C)S(=O)(=O)c2cccc3nsnc23)C1 (stereo unspecified)	0	2	-20	1	9	-1	i	-3

Ordered by heavy-atom count (low to high): some entries from above
SMILES	MT1-MMP act inh	MT1-MMP act inh RFP	Yeast UUG start	eIF4H inh	CSC inhib	Env fusion inh	Rce1 inh	PABP polyA inh
CC1CC(C)CN(CCC(=O)Nc2ccc(Br)cc2)C1 (stereo unspecified)	2	2	-16	1	6	5	i	-1
c1ccc(OCCOCCN2CCc3ccccc3C2)cc1	-1	3	·	-3	8	-8	i	4
COc1cc(/C=N/NC(=S)NCCN2CCOCC2)cc(OC)c1O	2	-2	-22	-5	-20	·	i	1

Going on with the list.
SMILES	MT1-MMP act inh	MT1-MMP act inh RFP	Yeast UUG start	eIF4H inh	CSC inhib	Env fusion inh	Rce1 inh	PABP polyA inh
CCCCOc1ccccc1C(=O)NCCCC(=O)O	0	4	·	-2	12	-26	i	-2
COc1ccc(C(=O)Nc2ccccc2C(=O)NCCN2CCOCC2)cc1OC	-2	2	-1	1	-8	48	i	-4
O=C(CSc1nc(=O)n2cc(Cl)ccc2n1)Nc1ccc2c(c1)OCCO2	-6	6	-1	·	-10	-39	i	·
Cc1ccc(-n2c(C)c3c(C)nnc(C)c3c2C)cc1N	-3	2	-7	26	-5	10	i	6
O=C(CN1CCN(Cc2ccccc2)CC1)Nc1cccc(C(F)(F)F)c1	6	1	-11	-11	5	-56	i	5
O=C(COC(=O)c1ccc(Cl)nc1)Nc1ccc(S(=O)(=O)N2CCCC2)cc1	-1	9	·	-2	0	-12	i	3
O=C(CNC(=O)c1ccccc1)OCC(=O)c1ccc(Cl)s1	1	1	1	·	-6	·	·	·
CCCCOc1ccc(C(=O)N/C(=C\c2cccc([N+](=O)[O-])c2)C(=O)OCCC)cc1	-3	0	·	0	8	·	i	4
N#Cc1ccc(-c2csc(NC(=O)/C=C/c3cccs3)n2)cc1	3	-12	·	4	7	·	i	-5
CN(CCN1CCc2ccccc2C1)Cc1nc(Cc2ccccc2F)no1	-4	0	7	4	·	2	·	-12
CCOc1ccc(C(C)=O)cc1COC(=O)CN1C(=O)NC2(CCCC2)C1=O	6	8	·	·	1	-272	i	·
CCOC(=O)c1c(C)c(C(=O)NCc2ccc3c(c2)OCO3)c(C)n1CC	-2	-2	·	32	0	20	i	9
CC[N+]1=CN(c2ccccc2)C(C)=CC1(C)C	-1	2	-14	-5	-8	·	i	7
O=S(=O)(c1ccc(Br)cc1)n1c(Cc2ccccc2)nc2ccccc21	0	4	·	-4	-7	-2	i	-12
Cn1nc(C(F)(F)F)c2cc(C(=O)Nc3ccc(F)cc3F)sc21	-1	1	·	-1	-19	·	i	24
Cc1csc2nc(CCNS(=O)(=O)c3cccs3)cn12	2	5	-17	10	-10	·	i	-1
CCc1ncc(CN2CCCC(C(=O)Nc3cccc(-c4cccc(C)c4)c3)C2)cn1 (stereo unspecified)	6	-1	40	9	23	-5	i	-10
COc1ccc(S(=O)(=O)N2CCC(C(=O)NC3CC3)CC2)cc1Cl	-4	1	-10	-2	5	·	i	0
Cc1cc(NC(=O)c2cnn3c(C(F)(F)F)cc(-c4ccc(Br)cc4)nc23)no1	1	-1	-6	7	-2	-16	i	2
COc1ccc(CCNC(=O)c2ccccc2C(=O)NCCc2ccc(OC)c(OC)c2)cc1OC	0	3	-4	·	-6	-3	i	·
O=C(OCC(=O)N1CCOCC1)c1ccccc1OCc1ccccc1	-2	0	-25	·	-12	·	·	·
CN(C)C(CNC(=O)CCNC(=O)c1ccc(Br)cc1)c1ccco1 (stereo unspecified)	-5	2	-25	·	-3	28	i	·
O=C(NCC(c1ccco1)N1CCc2ccccc2C1)c1ccc(F)cc1 (stereo unspecified)	-1	0	·	·	0	6	i	·
Cc1ccccc1N(Cc1ccccc1F)S(C)(=O)=O	-3	0	6	-1	·	10	i	-9
CCOC(=O)c1cccc(NC(=O)C2(S(=O)(=O)c3ccc(Cl)cc3)CC2)c1	1	0	·	-4	4	-11	i	-10
O=C(Nc1cc(C(=O)N2CCN(c3ccccc3)CC2)ccc1Cl)c1cccs1	3	0	-26	·	-5	·	·	·
CCC(CC)C(=O)N1CC(=O)Nc2ccc(C)cc2C1c1ccccc1 (stereo unspecified)	1	3	1	-9	-10	30	i	-4
CCCCC(C(=O)N/N=C/c1ccccn1)C(=O)N/N=C/c1ccccn1	3	3	-24	5	2	-8	i	1
CCCC(=O)N1CCCC(c2cc(C(=O)Nc3ccccc3)no2)C1 (stereo unspecified)	0	2	-80	·	·	-3	·	·
COc1cc(NC(=O)c2cccs2)c(OC)cc1NC(=O)CCC(=O)Nc1ccc(C)cc1	0	-4	-25	-1	-16	7	i	-4
Cc1cccc(C)c1NC(=O)CN(C)C(=O)Cn1c(=O)cnc2ccccc21	-1	0	-4	-12	-12	-429	i	-8
Cc1nnc(SCC(=O)N2CCOCC2)[nH]c1=O	6	4	-6	6	-4	-5	i	-1
C/C(=N\NC(=O)c1cccc(O)c1)c1cccc(NC(=O)c2ccc(F)cc2)c1	5	3	5	-7	13	-72	i	-5
O=S1(=O)C[C@@H](N2CCOCC2)[C@H](N2CCOCC2)C1	-2	-2	-16	-6	-14	·	i	-8

Structures listed so far that have a Cl atom, in the order listed:
SMILES	MT1-MMP act inh	MT1-MMP act inh RFP	Yeast UUG start	eIF4H inh	CSC inhib	Env fusion inh	Rce1 inh	PABP polyA inh
O=C(CSc1ncn[nH]1)NCc1ccccc1Cl	0	6	-20	-4	-2	2	i	6
Cc1cc(C)cc(N(CCC(=O)O)S(=O)(=O)c2ccc(Cl)cc2)c1	2	1	·	1	0	7	i	1
Cc1ccc2[nH]c(=O)c(CN(CCCN(C)C)C(=O)Nc3cccc(Cl)c3)cc2c1	-8	-9	9	-8	-5	·	i	-12
CC(C)Sc1nc2c(c(=O)[nH]c(=O)n2C)n1Cc1ccc(Cl)cc1	-5	-10	0	-2	7	·	i	0
O=C(CSc1nc(=O)n2cc(Cl)ccc2n1)Nc1ccc2c(c1)OCCO2	-6	6	-1	·	-10	-39	i	·
O=C(COC(=O)c1ccc(Cl)nc1)Nc1ccc(S(=O)(=O)N2CCCC2)cc1	-1	9	·	-2	0	-12	i	3
O=C(CNC(=O)c1ccccc1)OCC(=O)c1ccc(Cl)s1	1	1	1	·	-6	·	·	·
COc1ccc(S(=O)(=O)N2CCC(C(=O)NC3CC3)CC2)cc1Cl	-4	1	-10	-2	5	·	i	0
CCOC(=O)c1cccc(NC(=O)C2(S(=O)(=O)c3ccc(Cl)cc3)CC2)c1	1	0	·	-4	4	-11	i	-10
O=C(Nc1cc(C(=O)N2CCN(c3ccccc3)CC2)ccc1Cl)c1cccs1	3	0	-26	·	-5	·	·	·
